From PubChem BioAssay
VDR inh = vitamin D3 receptor (human) inhibition. P11473. VDR-SRC2-3 peptide fluorescence polarization, 2 h. Potency, µM, for the others: max response, negative = inhibition, hits mostly inhibitors. 400,000 compounds, 0.93% hits. AID 504847; active means well fitted inhibition curve with a large enough effect; inconclusive means small, poorly fitted or top-dose-only effect, or another doubt; inactive means no such curve, though single readings can be large or run the other way; further: series mostly up to about 120 µM
Target sequence (P11473 whole entry, looked up): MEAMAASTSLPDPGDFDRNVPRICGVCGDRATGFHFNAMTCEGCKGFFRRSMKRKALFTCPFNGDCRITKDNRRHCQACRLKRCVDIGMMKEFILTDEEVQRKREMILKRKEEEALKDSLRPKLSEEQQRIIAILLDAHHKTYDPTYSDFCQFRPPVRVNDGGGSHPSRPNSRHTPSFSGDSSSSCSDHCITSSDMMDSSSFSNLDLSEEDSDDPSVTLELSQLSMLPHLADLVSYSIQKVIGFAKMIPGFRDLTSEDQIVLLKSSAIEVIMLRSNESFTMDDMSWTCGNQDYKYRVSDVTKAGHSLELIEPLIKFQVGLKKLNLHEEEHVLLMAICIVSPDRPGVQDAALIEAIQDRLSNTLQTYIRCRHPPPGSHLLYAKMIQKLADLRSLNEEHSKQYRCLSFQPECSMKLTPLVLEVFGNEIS
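Measured by FP: displacement of SRC2-3 coactivator peptide from VDR by library compounds, following a two-hour ambient incubation.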
An asterisk follows results filed as active; ? = inconclusive; & = joins results of further samples; [ ] = remark or other dose. On the % scale 0 is the no-effect control and ±100 the full control effect; potency means the concentration at half of the fitted maximal effect.

| compound | VDR inh |
| --- | --- |
| CC(=O)Nc1c(Br)cc2c(c1Br)Cc1cc(Br)ccc1-2 | -11% |
| COc1ccc(Cl)cc1NC(=O)C(C)N(C)Cc1cccc(Cl)c1Cl (stereo not drawn) | 17% |
| Cc1ccc(CNC(=O)C2CCCN(S(=O)(=O)c3ccc4c(c3)oc(=O)n4C)C2)cc1 (stereo not drawn) | 1% |
| Cc1ccc(-c2nn(-c3cccc(F)c3)cc2CN2CCN(c3ccccn3)CC2)o1 | -33% |
| COc1ccccc1CNC(=O)CCCn1c(=O)c2ccccc2n(CC(=O)Nc2ccc(C)cc2Cl)c1=O | -11% |
| O=C(CCC1CCCC1)Nc1cccn(Cc2ccccc2Br)c1=O | -17% |
| COc1cccc(C2=CC(c3cccs3)n3nnnc3N2)c1 (stereo not drawn) | 9% |
| O=C(N/N=C/c1cccc([N+](=O)[O-])c1)c1ccc(CN2CCOCC2)cc1 | 4% |
| CCc1ccc2[nH]c(=O)c(CN(CC3CCCO3)C(=S)NCc3ccco3)cc2c1 (stereo not drawn) | ? |
| COc1ccccc1N1CCN(c2ncc3c(n2)CCN(Cc2ccc(C)s2)C3)CC1 | 7% |
| Cc1nnnn1CC(=O)Nc1ccccc1[N+](=O)[O-] | -5% |
| COc1ccc(CNC(=O)Cn2ccc(N)nc2=O)cc1 | -5% |
| COc1ccc(CC(=O)OCC(=O)NC2CCCCC2)cc1OC | -4% |
| COc1ccc(CCNC(=O)c2cccc(NC3=NC4CS(=O)(=O)CC4S3)c2)c(OC)c1 (stereo not drawn) | -9% |
| Cc1ccn2c(Nc3ccc(C(C)C)cc3)c(-c3cccs3)nc2c1 | -10% |
| Cc1ccc(OCC(=O)Nc2ccc3nc(SCCOc4ccccc4)sc3c2)cc1 | 0% |
| CCn1c(CN2CCCCC2)nc2cc(NC(=O)c3cccc([N+](=O)[O-])c3)ccc21 | -2% |
| Cc1sc(NC(=O)c2ccco2)c(C(c2ccc(F)cc2)N2CCN(C)CC2)c1C (stereo not drawn) | 1% |
| N=c1c(C(=O)NC2CCCC2)cc2c(=O)n3ccccc3nc2n1CC1CCCO1 (stereo not drawn) | -1% |
| Cc1cc2ncn(S(=O)(=O)c3ccc(S(N)(=O)=O)cc3)c2cc1C | -10% |
| COC(=O)[C@H]1[C@H](CCc2ccccc2)NC(=O)N(Cc2ccccc2)[C@@H]1C | -22% |
| CN(C)S(=O)(=O)c1cccc(NC(=O)c2ccc3c(c2)OCCO3)c1 | 8% |
| Cc1cccc2c1NC1(CCCC1)CC2C (stereo not drawn) | 13% |
| COc1ccc(/C=N/NC(=O)C(=O)N2CCCC2)cc1 | 0% |
| Cc1ccc(-c2cn3cccnc3n2)cc1NC(=O)Cc1ccccc1 | 1% |
| CCN(CC)C(=O)Cn1c(=O)n(Cc2ccc(F)cc2)c(=O)c2sccc21 | 1% |
| O=S(=O)(Nc1cc(Cl)ccc1-n1cncn1)c1ccccc1Cl | 3% |
| O=C(NCC(c1cccs1)S(=O)(=O)c1cccs1)c1ccc(Cl)cc1 (stereo not drawn) | 9% |
| CNC(=S)N/N=C/c1cn(CCOc2ccccc2OC)c2ccccc12 | -19% |
| O=S1(=O)CCN=C2SC3=C(CCCC3)N21 | 8% |
| Cc1ccccc1N(C(=O)CCCC(=O)Nc1ccccn1)C(C(=O)NC1CCCC1)c1ccc(O)cc1 (stereo not drawn) | 0% |
| CC1(C)C(=O)Nc2ccccc2N1C(=O)COc1ncnc2ccccc12 | 17% |
| O=C(Cn1ncn2c(cc3ccccc32)c1=O)NCCC1=CCCCC1 | -10% |
| CC(=O)c1cccc(S(=O)(=O)Nc2ccc3nc(C)sc3c2)c1 | -14% |
| COC(=O)C1=C(C)NC(C)=C(C(=O)OC(C)C)C1c1cccc2nonc12 (stereo not drawn) | -9%&-20% |
| CC(=O)Nc1ccc(Br)c(Cl)c1 | -14% |
| O=C(/C(=C/c1ccncc1)n1ccnc1)c1ccc(Cl)cc1Cl | 79µM* |
| COc1ccc(-c2cn3nc(C)c(C)nc3n2)cc1OC | 14% |
| O=C(COC(=O)c1ncc(Cl)c(Cl)c1Cl)NCc1ccccc1 | -5% |
| Cc1ccc(C)c(N(C)C(=O)Cc2c(C(=O)O)[nH]c3ccc(Cl)cc23)c1 | -22% |
| CC(=O)N1CCc2cc(S(=O)(=O)NCC(=O)NCc3ccc(F)cc3)ccc21 | -17% |
| COC(C(=O)Nc1ccc(S(=O)(=O)Nc2cccc3ccccc23)cc1)c1ccccc1 (stereo not drawn) | -3% |
| O=C(/C=C/c1ccc(O)c([N+](=O)[O-])c1)c1ccc2ccccc2c1 | ? |
| O=C(Nc1ccc(N2CCOCC2)c(Cl)c1)c1ccccc1F | 9% |
| CCOC(=O)C(C(C)C)C(N)Cc1ccc(F)cc1 (stereo not drawn) | -5% |
| Cc1ccc(S(=O)(=O)N(C)C)cc1NC(=O)COC(=O)C1COc2ccccc2O1 (stereo not drawn) | -7% |
| C[C@H](NC(=O)c1[nH]cnc1C(=O)Nc1ccc(Cl)cc1)C(=O)OC(C)(C)C | -17% |
| CCN1C(=O)[C@H]2[C@@H](c3ccc(C)cc3)N3C(=O)N(c4cccc(Cl)c4)C(=O)[C@@]3(CC)[C@H]2C1=O | -15% |
| CC(C)(NO)/C(=N\O)c1ccc(Cl)cc1 | -6% |
| Cc1ccc(-c2nc3cnccn3c2Nc2ccc3c(c2)OCO3)cc1 | -16% |
| CC(C)(C)c1ccc(-c2conc2N)cc1 | 16% |
| Cc1[nH]c(=O)[nH]c(=O)c1S(=O)(=O)Nc1ccc(S(N)(=O)=O)cc1 | 10% |
| COC(=O)Nc1nc2ccc(Sc3ccccc3)cc2[nH]1 | 4%&0% |
| CC(C)(C)N1CC(C(=O)Nc2cccc(Cl)c2Cl)CC1=O (stereo not drawn) | -11% |
| C=CCn1c(SCC(N)=O)nnc1-c1ccccc1O | -5% |
| CCc1ccc(S(=O)(=O)NC(=S)Nc2ccccc2)cc1 | ? |
| CCc1[nH]nc2c1C(c1ccncc1)C(C#N)=C(N)O2 (stereo not drawn) | 6% |
| Cc1ccc(CNC(=O)CCS(=O)(=O)c2ccc3nc(C)sc3c2)cc1 | -27% |
| CCOC(=O)C1(CCCc2ccccc2)CCN(Cc2cn(CC)nc2C)CC1 | 13% |
| NO | -4% |

Other entries:
| compound | VDR inh |
| --- | --- |
| Cc1cccc(NC(=S)N/N=C/c2ccc3c(c2)OCO3)c1 | -3% |
| Cc1cc(NC(=O)CSc2nnc(Cc3cccn3C)n2CCc2ccccc2)no1 | 5% |
| O=C1N/C(=N/N=C/c2ccco2)SC1Cc1ccccc1 (stereo not drawn) | -19% |
| CCCCNC(=O)Oc1ccc(C(=O)N2c3ccccc3NC(=O)C2C)cc1 (stereo not drawn) | -14% |
| CCn1cc(C(=O)NC(C)c2ccccc2)c(=O)c2cc(S(=O)(=O)N3CCc4ccccc4C3)ccc21 (stereo not drawn) | 1% |
| O=C(c1ccccc1)c1ccc(OCCn2cnc3ccccc3c2=O)cc1 | 3% |
| CCn1c(N2CCN(C(=S)NCCc3ccccc3)CC2)nc2ccccc21 | 8% |
| Cn1c(SCC(=O)NCCc2ccccc2)nnc1-c1ccncc1 | 20% |
| O=C(/C=C/c1ccccc1)Nn1c(-c2cccs2)nc2ccccc2c1=O | 18% |
| CC(=O)c1ccc(S(=O)(=O)N2CCCCC2C(=O)O)cc1 (stereo not drawn) | -1% |
| COc1cc(/C=N/NC(=O)/C(=C/c2ccccc2)CCO)ccc1O | -12% |
| Cc1nc(-c2ccc(F)cc2)c(CC(=O)N2CCN(S(=O)(=O)c3ccc(F)cc3)CC2)s1 | -2% |
| O=C(O)c1cccc2cccnc12 | -2% |
| COc1ccc(-n2c(=O)c(-c3ccc(Cl)cc3)nc3cnc(N(C)C)nc32)cc1 | 3% |
| COc1ccc(OC)c(/C=N/NC(=O)CNC(=O)c2cccc3ccccc23)c1 | -2% |
| COC(=O)C1=C(C)NC(=O)C1(NS(=O)(=O)c1ccc(NC(C)=O)cc1)C(F)(F)F (stereo not drawn) | -5% |
| COc1ccc(/C=N/NC(=O)CNC(=O)c2ccc(S(=O)(=O)N3CCOCC3)cc2)c(OC)c1 | -8% |
| COC(=O)c1ccc(Cl)c(NC(=O)CN2CCC(C)CC2)c1 | -8% |
| N#C/C(=C\c1ccc(N2CCCCC2)o1)C(=O)Nc1cccc(Br)c1 | ? |
| O=C(/C=C/c1ccc2c(c1)OCO2)NCCSCc1cccc(Cl)c1 | -11% |
| COc1ccc(NC(=O)CN(C)C(=O)CNC(=O)c2ccc3c(c2)OCO3)cc1 | -16% |
| Cc1ccc(Oc2ccc(N)cc2)cc1 | -7% |
| CC1CCCCC1NC(=O)NC(=O)COC(=O)C1=NN(c2ccccc2)C(=O)CC1 (stereo not drawn) | -13% |
| O=C(NN1CC(=O)N(c2cc(Cl)cc(Cl)c2)CC1=O)c1sccc1Cl | -2% |
| O=C(N/C(=C/c1ccc(Br)cc1)C(=O)N1CCOCC1)c1ccco1 | 6% |
| O=C1C2C3C=CC(C3)C2C(=O)N1Nc1ccccc1 (stereo not drawn) | -3% |
| O=C(CS(=O)CC(=O)Nc1cnc2ccccc2c1)Nc1ccc(Cl)cc1 (stereo not drawn) | 20% |
| COc1ccc(NC(=O)c2ccccn2)cc1S(=O)(=O)N1CCOCC1 | 49%[activator] |
| NC(=O)C1(N2CCCCC2)CCN(C(=S)NC2CCCC2)CC1 | 4% |
| COc1cccc(CNc2nc(C(F)(F)F)nc3ccccc23)c1 | -1% |
| CCOC(=O)N1CCC(NC(=O)c2cccc3c2C(=O)N(c2ccc(OC)cc2)C3)CC1 | -7% |
| O=C(c1ccc(-c2ccc(Cl)cc2Cl)o1)N1CCOCC1 | -18% |
| CC1CCCC(NC(=O)COC(=O)c2ccc([N+](=O)[O-])o2)C1C (stereo not drawn) | -3% |
| CC(=O)c1c(C)[nH]c(C(=O)NNC(=O)c2ccc(C)cc2)c1C | 5% |
| CCCN1CNC(=S)N(c2cccc(C)c2)C1 | 1% |
| Cc1cc(C)c(S(=O)(=O)N(C)CC(=O)NCC2CCCO2)c(C)c1 (stereo not drawn) | -13% |
| COC(=O)Cn1c(=O)c2c(nc(Br)n2CC(=O)OC)n(C)c1=O | 6% |
| Cc1ccc(C(=O)NNC(=O)CSc2nnc(C(C)C)n2C)cc1 | -1% |
| CNC(=S)N1N=C(c2ccc(C)cc2)CC1c1ccc(Cl)cc1 (stereo not drawn) | -8% |
| COc1ccc(C2=NN(C(=O)CCC(=O)O)C(c3ccc(Br)cc3)C2)cc1 (stereo not drawn) | -3% |
| COc1ccc(CNC(=O)CCCCCNc2nc(=S)[nH]c3ccccc23)cc1 | -4% |
| Cn1cccc1C(=O)OCC(=O)NCCc1ccccc1 | -4% |
| Cc1c(C)n2c(SCC(=O)N3CCC(C)CC3)nnc2[nH]c1=O | 24% |
| COc1ccc2c(c1)C(=O)[C@@H](O)[C@H](c1ccc(OC)c(Br)c1)O2 | 7%&2% |
| CCOC(=O)c1cnn(-c2cc(C)c3ccccc3n2)c1N | 8% |
| c1ccn2cc(CSC3=NCCS3)nc2c1 | -7% |
| CCN(CC)S(=O)(=O)c1ccc(/C=C/C(=O)Nc2c(C)n(C)n(-c3ccccc3)c2=O)cc1 | -12% |
| Cc1cc(N2C(=O)[C@@H]3[C@H](C2=O)[C@@H]2C[C@H]3C(Br)C2Br)no1 (stereo partly drawn) | -19% |
| COc1ccccc1-n1nnnc1SCC(=O)NC(=O)Cc1ccccc1 | 13% |
| CC12CC(c3ccccc3O1)N(C(=O)c1ccco1)C(=O)N2c1ccccc1 (stereo not drawn) | -5% |
| Cc1sc2ncnc(NCC3CCCO3)c2c1C (stereo not drawn) | 2% |
| COC(=O)CCS(=O)(=O)c1nc(-c2ccccc2)cc(C(F)(F)F)n1 | 20µM* |
| CCC(=O)N1CCc2cc(S(=O)(=O)CCC(=O)Nc3cccc(F)c3)ccc21 | 10% |
| O=S(=O)(c1ccc(F)cc1)N1CCN(c2nc(-c3cccnc3)nc3ccccc23)CC1 | 3% |
| Fc1cc2[nH]cnc2cc1Cl | 0% |
| O=C(Nc1ccccc1)OCN1C(=O)c2ccccc2C1=O | -10% |
| Cc1ccc(Cn2c(SCC(=O)NCc3ccccc3Cl)nc3ccsc3c2=O)cc1 | 16% |
| CCn1nc(C)c(/C=C/C(=O)Nc2ccc(C)cc2C)c1C | -14% |
| Cc1cc(C(=O)Nc2c(F)cc(F)cc2Br)cs1 | 0% |
| C/C(CC(=O)NC1CCCC1)=N\NC(=O)Cc1csc(N)n1 | -5% |

Taken from above, 6 compounds:
| compound | VDR inh |
| --- | --- |
| Cc1cc(C)c(S(=O)(=O)N(C)CC(=O)NCC2CCCO2)c(C)c1 (stereo not drawn) | -13% |
| COC(=O)Cn1c(=O)c2c(nc(Br)n2CC(=O)OC)n(C)c1=O | 6% |
| Cc1ccc(C(=O)NNC(=O)CSc2nnc(C(C)C)n2C)cc1 | -1% |
| CNC(=S)N1N=C(c2ccc(C)cc2)CC1c1ccc(Cl)cc1 (stereo not drawn) | -8% |
| COc1ccc(C2=NN(C(=O)CCC(=O)O)C(c3ccc(Br)cc3)C2)cc1 (stereo not drawn) | -3% |
| COc1ccc(CNC(=O)CCCCCNc2nc(=S)[nH]c3ccccc23)cc1 | -4% |

Returning to the listing, repeating the 2 entries before the break.
| compound | VDR inh |
| --- | --- |
| Cc1cc(C(=O)Nc2c(F)cc(F)cc2Br)cs1 | 0% |
| C/C(CC(=O)NC1CCCC1)=N\NC(=O)Cc1csc(N)n1 | -5% |
| NC(=O)c1cc([N+](=O)[O-])ccc1N1CCN(Cc2ccccc2)CC1 | 3% |
| CCCn1c(NCc2ccc(N(CC)CC)cc2)nc2ccccc21 | -2% |
| COc1cc(-c2nc(-c3cccc(C)c3)no2)cc(OC)c1OC | -5% |
| O=C(CN(C(=O)c1csnn1)c1ccccc1C(F)(F)F)NC1CCCCC1 | -9% |
| c1cncc(C(c2nnnn2C2CCCCC2)N2CCCCC2)c1 (stereo not drawn) | 2% |

A portion of the library; the hit share may differ from the screen's.
